Assay outcomes (PubChem)
CtBP-E1A inh = qHTS Assay for Inhibitors of the CtBP/E1A Interaction; activity change, % (test concentration not listed); 340,000 tested, 0.49% active; CtBP / adenovirus E1A interaction (AlphaScreen); AID 651724, 2012; AlphaScreen GST-E1A/His-CtBP binding, 1536-well; stronger effect = lower value; control for the full effect not named in the record; in the data active means activity change below about -65%; inconclusive means about -30% to -65%; inactive means above about -30%; note: % is set by controls: 0 for no effect and ±100 for the full control effect; compound concentration not given in the record
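GST-E1A and His-tagged CtBP (125 nM each as 5X stock) were preincubated with pin-transferred compound for 2 h at 37 °C in the dark, then glutathione donor and nickel acceptor beads were added for 1 h before AlphaScreen reading.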
Sfp inh = qHTS Assay for Inhibitors of Bacillus subtilis Sfp phosphopantetheinyl transferase (PPTase) | 4'-phosphopantetheinyl transferase ffp (Bacillus subtilis), Q9F4F7 | Biochemical Sfp PPTase activity, qHTS | Potency, µM, for inactives: max response, negative = inhibition, most hits filed as inhibitors | 310,000 tested, 3.5% active; active = well fitted inhibition curve with a large enough effect; inconclusive = small, poorly fitted or top-dose-only effect, or another doubt; inactive = no such curve, though single readings can be large or run the other way;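 note: the enzyme is Sfp with the accession as filed and its product quenches rhodamine fluorescence; potency is the fitted concentration of half-maximal effect; 0% = enzyme reaction without inhibitor and -100% = no enzyme wells; top concentration of the series not given in the record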
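Reaction rates are the 30-min fluorescence difference (ex 525, em 598 nm) in wells containing 15 nM Sfp, 5 uM rhodamine-CoA and 12.5 uM BHQ-2-YbbR at pH 7.6 with 10 mM MgCl2.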
PINK1 modulator = A Quantitative High throughput Screen to Identify Chemical Modulators of PINK1 Expression | AID 624263, 2012 | 410,000 tested, 0.2% active | PINK1 immunofluorescence, high-content cytometry, 24 h | Potency, µM (series often up to 76.6 µM), inactives show at the highest dose activation (PINK1 increase), usual class: activators; active = well fitted activation curve with a large enough effect; inconclusive = small, poorly fitted or top-dose-only effect; inactive = flat fitted curve, though single readings scatter; cell line not stated here;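 note: potency is the fitted concentration of half-maximal effect; % of control where 0% means no effect; nearly all actives have a fitted effect of over 65% in size; a mitochondrial uncoupler was the plate control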
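Fluorescence from anti-PINK1 antibody, together with nuclear and cell stains, was scanned on a laser-scanning cytometer. Before staining, stable-line cells were incubated 24 hours with compounds at 5 concentrations; primary antibody 12 h at 10 degrees C.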
D2 PAM = Beta-Arrestin HTS for Positive Allosteric Modulators of the Human D2 Dopamine Receptor: Potentiators | DiscoveRx D2 beta-arrestin cells, luminescence, 90 min; 100% = 57 uM dopamine signal | AID 624464, 2012 | D(2) dopamine receptor (Homo sapiens), P14416 | potentiation, % (no concentration beside the values) | 360,000 tested, 0.23% active; active = potentiation of 50% or more; inconclusive = 30% to 50%; inactive = 30% or less;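 note: compound concentration not given in the record; tested on top of an EC20 dose of dopamine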
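D2 cells co-treated with compound plus 50 nM dopamine (EC20) for 90 min at 37 deg C to detect potentiation. Beta-arrestin recruitment was read as enzyme-fragment luminescence after 1 h at ambient temperature. Full response was set by 57 uM dopamine.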
D2 ag = Beta-Arrestin HTS for Positive Allosteric Modulators of the Human D2 Dopamine Receptor: Agonists; 360,000 tested, 0.084% active; activation, % (test concentration not listed); D(2) dopamine receptor (Homo sapiens), P14416; DiscoveRx PathHunter D2 beta-arrestin, luminescence, 90 min; 100% = 57 uM dopamine signal; in the data active = activation above about 40%; inconclusive = about 15% to 40%; inactive = below about 15%; note: compound concentration not given in the record; the text of the record calls up to 30% inactive
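Agonist mode: compounds alone added to overnight-plated D2 PathHunter cells for 90 min at 37 C, with 57 uM final dopamine (EC100) defining full response. Beta-arrestin recruitment detected by chemiluminescent reagent, read after 1 h at ambient temperature.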
TRPV1 potentiator = HTS Assay for Compounds that Act as Potentiators of the Vanilloid Receptor 1. Transient receptor potential cation channel subfamily V member 1 (Homo sapiens), Q8NER1. 320,000 tested, 0.02% active. TRPV1-expressing cells, Fluo-8 calcium influx, capsaicin EC20 potentiation; host cell line not named in the record; control for the full effect not named in the record. potentiation, % at 8.33 µM; active means potentiation above 80%; inconclusive means 30% to 80%; inactive means below 30%; note: 0% is about no effect
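Fluo-8 calcium influx in TRPV1-expressing cells, kinetic read (ex 480/em 520 nm). Compound added and read 3 min for agonist activity, followed by capsaicin at EC20 final and 2 min further read for enhancement.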
Six1-Eya2 inh = qHTS Assay for Inhibitors of the Six1/Eya2 Interaction. activity change, % (concentration not given with the values). AID 651725, 2012. Homeobox protein SIX1 (Homo sapiens) + Protein phosphatase EYA2 (Homo sapiens), …. AlphaScreen GST-Six1/His-Eya2 binding, biochemical; stronger effect = lower value; control for the full effect not named in the record. 360,000 tested, 0.56% active; in the data active = activity change below about -65%; inconclusive = about -30% to -65%; inactive = above about -30%; note: % is set by controls: 0 for no effect and ±100 for the full control effect
Target sequence (O00167 whole entry, looked up): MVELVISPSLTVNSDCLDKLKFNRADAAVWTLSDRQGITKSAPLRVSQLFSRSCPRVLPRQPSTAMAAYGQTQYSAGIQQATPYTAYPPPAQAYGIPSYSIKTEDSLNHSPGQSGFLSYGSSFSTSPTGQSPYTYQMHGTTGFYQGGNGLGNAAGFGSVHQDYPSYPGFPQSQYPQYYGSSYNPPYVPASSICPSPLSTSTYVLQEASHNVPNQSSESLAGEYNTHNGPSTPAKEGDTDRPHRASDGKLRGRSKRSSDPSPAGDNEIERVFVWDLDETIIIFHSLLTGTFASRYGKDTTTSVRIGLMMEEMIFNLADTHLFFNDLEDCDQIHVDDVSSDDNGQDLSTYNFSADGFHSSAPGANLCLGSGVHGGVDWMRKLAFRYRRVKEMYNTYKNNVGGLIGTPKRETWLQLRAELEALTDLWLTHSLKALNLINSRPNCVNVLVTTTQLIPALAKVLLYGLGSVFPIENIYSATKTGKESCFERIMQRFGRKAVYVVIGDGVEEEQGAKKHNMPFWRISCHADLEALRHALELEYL
Target sequence (Q15475 whole entry, looked up): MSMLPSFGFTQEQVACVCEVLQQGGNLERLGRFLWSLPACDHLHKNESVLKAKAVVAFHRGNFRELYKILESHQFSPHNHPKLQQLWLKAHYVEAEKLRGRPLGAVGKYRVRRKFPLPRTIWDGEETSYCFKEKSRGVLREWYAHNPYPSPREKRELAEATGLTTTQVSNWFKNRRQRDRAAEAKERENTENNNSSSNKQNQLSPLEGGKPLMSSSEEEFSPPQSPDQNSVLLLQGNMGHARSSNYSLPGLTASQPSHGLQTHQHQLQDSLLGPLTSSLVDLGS
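Homogeneous AlphaScreen proximity assay pairing GST-Six1 with His-tagged Eya2 (added as 5X mix: 250 nM and 500 nM) in 50 mM Tris pH 8.0, 300 mM NaCl, 1 mM TCEP. Glutathione donor and nickel acceptor beads; 1 h, 37 °C, dark.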
The depositor's hits bear a star; ? = inconclusive; · = not tested or not shown; [ ] = dose if it differs, or a comment.

Screens in order – CtBP-E1A inh, Sfp inh, PINK1 modulator, D2 PAM, D2 ag, TRPV1 potentiator, Six1-Eya2 inh
- Cc1ccc(N(C(=O)c2snc(C(N)=O)c2N)C(C(=O)NCCC(C)C)c2ccco2)cc1 (stereo unspecified)
    4, 4%, 1.0%, -12, -0.4, -2, -6
- O=S(=O)(c1cccc(-c2csc(-c3ccccc3)n2)c1)N1CCOCC1
    -2, -14%, -0.9%, -18, -6.2, 14, -8
- CCc1cc2c(NC(Cc3c[nH]c4ccccc34)C(=O)O)nc(C)nc2s1 (stereo unspecified)
    4, -7%, 4.5%, 4, 4.1, 4, -3
- CCc1[nH]nc2c1C(C1C=CCCC1)C(C#N)=C(N)O2 (stereo unspecified)
    ·, 12%, 20%, -11, -4.0, 2, 2
- Cc1ccc(S(=O)(=O)N2CCCC(c3nnc4n3-c3ccccc3SC4)C2)cc1 (stereo unspecified)
    1, -3%, 2.8%, -7, -1.4, -23, 7
- COc1ccc2c(c1OC)c(=O)n1c3ccc(OC(C)C(=O)NCCN4CCOCC4)cc3c3ccnc2c31 (stereo unspecified)
    -10, 29%, 0.2%, -25, -7.3, 14, -2
- O=C(c1cncc(Br)c1)N1CCN(c2ccc([N+](=O)[O-])cc2)CC1
    3, -10%, -1.9%, -13, 0.4, -11, 5
- COc1ccc(S(=O)(=O)Nc2cc(C(=O)NCCCN3CCOCC3)ccc2N2CCOCC2)cc1
    ·, 8%, 0.2%, -12, -0.4, 11, 7
- CCn1c(SCC(=O)Nc2nnc(C)s2)nnc1C(C)NC(=O)c1ccccc1F (stereo unspecified)
    13, -8%, 4.5%, -4, -1.7, 1, 0
- COc1ccc(S(=O)(=O)NC(Cc2cnc[nH]2)C(=O)O)cc1 (stereo unspecified)
    -8, -22%, 1.3%, 5, -2.7, 20, 8
- CCCCc1ccc(S(=O)(=O)NC(=O)C2(C)CCN2C(=O)CC2CC2)cc1 (stereo unspecified)
    -24, ·, -0.7%, -16, -4.4, ·, 12
- CNC(=O)COC(=O)COc1ccc2c(C)cc(=O)oc2c1
    8, 7%, 0.9%, -5, -3.1, -17, 1
- COC(=O)c1ccccc1NC(=O)CN(c1ccc(C)cc1)S(C)(=O)=O
    -5, 9%, 0.6%, -3, -6.8, -4, 6
- Cc1ccc(CNc2oc(COc3ccccc3Cl)nc2C#N)cc1
    -16, 10%, 6.3%, -3, -0.3, 1, -7
- Cc1nnsc1C(=O)NNS(=O)(=O)c1cc(C(F)(F)F)cc(C(F)(F)F)c1
    7, 6%, 4.5%, -8, -2.3, 2, 2
- Cc1nc(C)c(CCNC(=O)c2ccccc2Br)s1
    26, -12%, 0.8%, -15, -3.5, 7, -8
- O=C(Cn1cc([N+](=O)[O-])ccc1=O)N1CCc2ccccc21
    -13, ·, -1.2%, -24, -1.5, ·, 15
- CC(=O)Nc1ccc(NC(=O)C(=O)c2cn(CC(=O)N3CCCC3)c3ccccc23)cc1
    -1, -4%, 20%, 2, -2.1, 18, 6
- CC(=O)c1ccc(OC(=O)Oc2ccc(C(C)=O)cc2)cc1
    14, ·, -5.9%, -13, -2.8, ·, 3
- CCN(C(=O)CN1C(=O)NC(c2ccccc2)(c2ccc(C)c(C)c2)C1=O)C1CCS(=O)(=O)C1 (stereo unspecified)
    ·, ·, 1.2%, -5, -2.3, 2, 0
- CCOC(=O)c1c(NC2=NS(=O)(=O)c3ccccc32)sc2c1CCCCC2
    0, 5%, 5.0%, -5, -1.9, 7, 13
- COc1ccc(NC(C)=O)cc1NC(=O)CSc1nnc(-c2ccc(F)cc2)n1N
    -16, 12%, -2.9%, -17, -2.7, ·, -1
- Cc1ccc(C(=O)Nc2nc(C)c(C)s2)o1
    -3, 10%, 0.3%, 7, -0.6, 0, 0
- COC(=O)C(Cc1ccccc1)NC(=O)COc1ccc(C(C)(C)C)cc1 (stereo unspecified)
    3, -6%, -0.2%, -23, -2.1, -19, 16
- Cc1ccc(C)c(S(=O)(=O)N2CCN(CC(=O)NC(=O)NCc3ccco3)CC2)c1
    -10, 7%, -1.3%, 0, 0.1, -2, -2
- CC(C)(C)[C@@H]1C=C(C(=O)O)O[C@H](OCc2ccc(CO)cc2)C1
    4, 17%, 0.1%, -10, -0.7, 7, 4
- COc1ccc(N2CCN(c3cnc4ccccc4n3)CC2)cc1
    -28, 14%, 2.0%, 5, -1.3, 7, 1
- CCN(Cc1ccc(NC(C)=O)cc1)CC1CCCN(CCc2cccc(OC)c2)C1 (stereo unspecified)
    ·, 6%, -1.2%, -59, -1.8, -8, 15
- COC(=O)c1cc2c(N)c(C(=O)c3ccc(Cl)cc3)sc2nc1C(OC)OC
    12, -2%, 0.2%, -2, -0.7, 2, 0
- O=C1c2ccccc2NC(c2ccccc2O)N1NS(=O)(=O)c1ccccc1 (stereo unspecified)
    8, 23%, -1.0%, 0, 2.6, 3, 0

(continued)
Screens in order – CtBP-E1A inh, Sfp inh, PINK1 modulator, D2 PAM, D2 ag, TRPV1 potentiator, Six1-Eya2 inh
- Cc1ccc(N)cc1CN1CCCC1=O
    15, 7%, 1.1%, -7, -3.1, -9, -2
- O=C(c1cccnc1)N1CCN(S(=O)(=O)c2ccc3ccccc3c2)CC1
    -2, 12%, -3.1%, 13, 5.3, -1, 7
- CSCCC(NC(=O)c1ccc(Cl)cc1Cl)C(=O)NCc1ccccn1 (stereo unspecified)
    -4, 8%, 2.7%, -4, -1.5, 3, -3
- S=C(c1ccccc1)N1CCSCC1
    -2, 0%, 1.2%, -11, 2.8, -23, -1
- NC(=O)CSc1nnc(-c2ccccn2)n1Cc1ccco1
    0, 1%, 0.2%, -5, -1.6, 21, 3
- CCOC(=O)CN1C(=O)N(c2ccccc2OC)S(=O)(=O)c2ccccc21
    0, ?, -1.7%, -11, -3.0, -3, 0
- c1ccc(CNC2CC3CCC2C3)cc1 (stereo unspecified)
    3, ·, 0.8%, -3, -1.9, ·, 5
- O=S(=O)(NCc1ccccc1)NCc1ccccc1
    3, 11%, 2.2%, 0, -2.8, -28, 4
- O=C(Nc1ccccc1Cl)C1C(c2ccccc2)C1(Cl)Cl (stereo unspecified)
    ·, 11%, 2.9%, -2, 1.4, -31, -9
- O=c1oc2ccccc2n1Cc1cccc(C(F)(F)F)c1
    -2, ·, 7.5%, -3, -5.5, ·, 13
- Cc1ccc(NC(=O)C2CC(=O)N(c3ccccc3Cl)C2)cc1S(=O)(=O)N1CCOCC1 (stereo unspecified)
    -15, ·, -1.5%, -8, 3.1, ·, -3
- CC(C)(C)c1ccc(S(=O)(=O)N2CCC(N3CCCCC3)CC2)cc1
    17, 0%, 3.0%, -4, -3.4, -2, 6
- CC(=O)c1c(C(C)=O)c(C)n(-c2ccc(N)cc2)c1C
    2, 2%, -0.6%, -10, 2.1, 3, 2
- O=C1Nc2ccccc2/C1=N/N=C/c1cccc(O)c1
    -1, -7%, 0.2%, -4, -2.1, -1, 12
- CC1Sc2ccc(S(=O)(=O)N3CCC(C(N)=O)CC3)cc2NC1=O (stereo unspecified)
    -9, 7%, 2.2%, -7, -5.7, -1, 2
- O=C(OCC(=O)N1CCN(C(=O)c2ccco2)CC1)C1=COCCO1
    0, 1%, 4.7%[38.3 µM], -1, -4.3, 26, -1
- CCOC(=O)c1c(SCc2ccccc2)n[nH]c1N
    ·, 10%, 2.7%, 0, 1.6, 5, -4
- c1ccc(CCc2cn(C[C@H]3CC[C@@H]([C@@H]4CC[C@H](Cn5cc(CCc6ccccc6)nn5)O4)O3)nn2)cc1
    -13, -3%, -0.7%, 1, -2.1, 12, 10

Entries above containing an aryl methoxy group:
Screens in order – CtBP-E1A inh, Sfp inh, PINK1 modulator, D2 PAM, D2 ag, TRPV1 potentiator, Six1-Eya2 inh
- COc1ccc2c(c1OC)c(=O)n1c3ccc(OC(C)C(=O)NCCN4CCOCC4)cc3c3ccnc2c31 (stereo unspecified)
    -10, 29%, 0.2%, -25, -7.3, 14, -2
- COc1ccc(S(=O)(=O)Nc2cc(C(=O)NCCCN3CCOCC3)ccc2N2CCOCC2)cc1
    ·, 8%, 0.2%, -12, -0.4, 11, 7
- COc1ccc(S(=O)(=O)NC(Cc2cnc[nH]2)C(=O)O)cc1 (stereo unspecified)
    -8, -22%, 1.3%, 5, -2.7, 20, 8
- COc1ccc(NC(C)=O)cc1NC(=O)CSc1nnc(-c2ccc(F)cc2)n1N
    -16, 12%, -2.9%, -17, -2.7, ·, -1
- COc1ccc(N2CCN(c3cnc4ccccc4n3)CC2)cc1
    -28, 14%, 2.0%, 5, -1.3, 7, 1
- CCN(Cc1ccc(NC(C)=O)cc1)CC1CCCN(CCc2cccc(OC)c2)C1 (stereo unspecified)
    ·, 6%, -1.2%, -59, -1.8, -8, 15
- CCOC(=O)CN1C(=O)N(c2ccccc2OC)S(=O)(=O)c2ccccc21
    0, ?, -1.7%, -11, -3.0, -3, 0
